# gsp antag – qHTS for Antagonists of gsp, the Etiologic Mutation Responsible for Fibrous Dysplasia/McCune-Albright Syndrome: qHTS. actives 0.4% (n = 340,000). Potency, µM (highest dose often 76.9 µM), inactives show at the highest dose activity change, negative = inhibition, actives largely listed as inhibitors. gsp-mutant cells, cAMP HTRF, 30 min; control for the full effect not named in the record. AID 624288, 2012; active = falling curve of any shape with a large fitted effect; inconclusive = falling curve, mostly with a smaller effect; inactive = flat or rising curve; cell line not stated here;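 note: intracellular cAMP measured with PDE inhibitor Ro 20-1724 present during compound exposure; potency is the fitted concentration of half-maximal effect; % is set by controls: 0 for no effect and ±100 for the full control effect; nearly all actives have a fitted effect of over 65% in size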
#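 Cells, 2000/well, grown 16–24 h in DMEM 10% FBS with 0.5 mg/ml G418, then compounds plus […] (300 uM addition stock), 30 min at 37C. cAMP read by HTRF (cAMP-d2 and anti-cAMP antibody-K in lysis buffer) after 30 min RT.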
# ClpP mod – qHTS Assay for Activators of ClpP. actives 1.9% (n = 340,000). Potency, µM (highest dose often 57.5 µM), without a hit: top-dose activity change, negative = active. purified B. subtilis ClpP, FRET peptide cleavage, 20 min; active = well fitted falling curve with a large enough effect; inconclusive = small, poorly fitted or top-dose-only effect; inactive = no such curve, though single readings can be large or run the other way; note: potency is the fitted concentration of half-maximal effect; the source files actives as falling curves though it sought activators and does not explain the sign; nearly all actives have a fitted effect of over 65% in size; many hits overshoot -100%
# Target sequence (P80244 whole entry, looked up): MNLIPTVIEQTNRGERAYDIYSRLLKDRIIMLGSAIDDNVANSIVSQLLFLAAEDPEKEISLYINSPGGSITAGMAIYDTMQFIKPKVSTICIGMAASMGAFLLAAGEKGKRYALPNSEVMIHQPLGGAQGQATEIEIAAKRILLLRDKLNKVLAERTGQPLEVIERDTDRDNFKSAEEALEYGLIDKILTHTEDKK
#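 Buffer: 100 mM Tris/HCl pH8, 100 mM KCl, 0.05% low protease BSA, 2.5% glycerol, 0.01% Tween-20. ClpP 10 microg/mL final; 20 min RT; delta FRET normalized to ADEP and DMSO controls.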
# Menin MLL FP FL – qHTS Assay for Inhibitors Targeting the Menin-MLL Interaction in MLL Related Leukemias: Competition With Fluorescein Labeled MLL-derived Peptide. FP activity change, % at 61.4 µM. Fluorescence polarization, fluorescein-MLL peptide displacement from menin. 290,000 tested, under 10 active; inconclusive = falling polarisation curve, or a change in total fluorescence; inactive = total fluorescence flat and polarisation flat or rising; no compound was filed as active; the % refers to the polarisation; negative = inhibition;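 note: % of control where 0% means no effect; inhibitors lower the polarisation; unlabelled MLL peptide was the positive control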
# gsp ag – qHTS for Agonist of gsp, the Etiologic Mutation Responsible for Fibrous Dysplasia/McCune-Albright Syndrome: qHTS; actives 0.13% (n = 340,000); Potency, µM (top dose mostly 76.9 µM), without a hit: at the highest dose activation (cAMP increase), actives largely listed as activators; gsp mutant cells, cAMP HTRF, 30 min; control for the full effect not named in the record; active = well fitted activation curve with a large enough effect; inconclusive = small, poorly fitted or top-dose-only effect, or another doubt; inactive = no such curve, though single readings can be large or run the other way; cell line not stated here;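 note: phosphodiesterase inhibitor Ro 20-1724 added with compounds to block cAMP breakdown; potency is the fitted concentration of half-maximal effect; nearly all actives have a fitted effect of over 60% in size; about a fifth of the inactives were tested at one dose only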
#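 Cells in DMEM/10% FBS with G418 were pretreated with compounds in DMSO plus […] (300 uM stock) for 30 min at 37C. cAMP was measured by HTRF (cAMP-d2 plus anti-cAMP antibody-K) after 30 min at room temperature.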
# CtBP-E1A blk – qHTS Assay for Inhibitors of the CtBP/E1A Interaction | CtBP / adenovirus E1A interaction (AlphaScreen) | AlphaScreen GST-E1A/His-CtBP binding, 1536-well; hits give low values; control for the full effect not named in the record | activity change, % (test concentration not listed) | actives 0.49% (n = 340,000) | AID 651724, 2012; in the data active means activity change below about -65%; inconclusive means about -30% to -65%; inactive means above about -30%; note: % is set by controls: 0 for no effect and ±100 for the full control effect; compound concentration not given in the record
#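 AlphaScreen with 125 nM GST-E1A and 125 nM His-CtBP (5X stocks) in Tris pH 8.0, 300 mM NaCl, BSA, Tween 20, TCEP. Compounds preincubated 2 h at 37 deg C, then glutathione donor/nickel acceptor beads added for 1 h at 37 deg C in dark.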
# Sfp inh – qHTS Assay for Inhibitors of Bacillus subtilis Sfp phosphopantetheinyl transferase (PPTase) | 4'-phosphopantetheinyl transferase ffp (Bacillus subtilis), Q9F4F7 | Biochemical Sfp PPTase activity, qHTS | Potency, µM, for inactives: max response, negative = inhibition, actives largely listed as inhibitors | actives 3.5% (n = 310,000); active = well fitted inhibition curve with a large enough effect; inconclusive = small, poorly fitted or top-dose-only effect, or another doubt; inactive = no such curve, though single readings can be large or run the other way;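 note: the enzyme is Sfp with the accession as filed and its product quenches rhodamine fluorescence; potency is the fitted concentration of half-maximal effect; 0% = enzyme reaction without inhibitor and -100% = no enzyme wells; top concentration of the series not given in the record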
#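 Compounds were incubated with enzyme (final 15 nM) for 15 min at room temperature before substrate addition started the reaction. Fluorescence at 525 nm excitation, 598 nm emission was recorded immediately and after 30 minutes.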
# TRPV1 potentiator – HTS Assay for Compounds that Act as Potentiators of the Vanilloid Receptor 1 | actives 0.02% (n = 320,000) | potentiation, % at 8.33 µM | Transient receptor potential cation channel subfamily V member 1 (Homo sapiens), Q8NER1 | TRPV1-expressing cells, Fluo-8 calcium influx, capsaicin EC20 potentiation; host cell line not named in the record; control for the full effect not named in the record | AID 540277, 2011; active means potentiation above 80%; inconclusive means 30% to 80%; inactive means below 30%; note: 0% is about no effect
# Target sequence (Q8NER1 whole entry, looked up): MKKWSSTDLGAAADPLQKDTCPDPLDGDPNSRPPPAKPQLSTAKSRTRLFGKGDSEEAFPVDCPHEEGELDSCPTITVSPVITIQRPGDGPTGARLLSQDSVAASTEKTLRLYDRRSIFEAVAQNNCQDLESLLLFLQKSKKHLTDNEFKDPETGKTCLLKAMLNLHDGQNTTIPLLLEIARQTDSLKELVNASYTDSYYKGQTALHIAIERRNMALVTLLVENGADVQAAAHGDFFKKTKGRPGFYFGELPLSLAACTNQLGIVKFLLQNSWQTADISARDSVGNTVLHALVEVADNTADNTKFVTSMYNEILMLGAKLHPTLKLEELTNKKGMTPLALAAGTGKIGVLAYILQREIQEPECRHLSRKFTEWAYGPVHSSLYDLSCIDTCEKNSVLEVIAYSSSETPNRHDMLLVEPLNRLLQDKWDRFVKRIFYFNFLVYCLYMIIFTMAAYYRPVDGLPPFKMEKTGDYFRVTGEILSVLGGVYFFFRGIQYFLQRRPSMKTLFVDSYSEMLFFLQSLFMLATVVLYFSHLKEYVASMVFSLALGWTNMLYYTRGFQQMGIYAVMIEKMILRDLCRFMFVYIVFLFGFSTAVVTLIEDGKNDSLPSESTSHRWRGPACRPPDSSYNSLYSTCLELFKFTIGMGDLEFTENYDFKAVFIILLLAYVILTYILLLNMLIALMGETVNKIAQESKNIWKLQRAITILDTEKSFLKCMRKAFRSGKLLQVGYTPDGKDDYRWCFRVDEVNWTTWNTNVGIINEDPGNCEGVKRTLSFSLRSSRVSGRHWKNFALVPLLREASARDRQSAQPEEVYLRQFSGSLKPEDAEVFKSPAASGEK
#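 TRPV1-expressing cells were cultured overnight at 35.5C and loaded with Fluo-8 calcium dye for 40 to 90 min at room temperature. After a 10 s baseline, compound was added and calcium influx was read kinetically for 3 min (ex 480/em 520 nm).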
# An asterisk follows results filed as active; ? = inconclusive; · = no result given; & = joins results of further samples; [ ] = remark or other dose.
molecule,ClpP mod,Sfp inh,gsp ag,TRPV1 potentiator,CtBP-E1A blk,Menin MLL FP FL,gsp antag
COc1ccc(C(=O)NCCc2cn3ccccc3n2)cc1,4.0%,-4.2%,9.9%,-19.0,-4.3,1.9,2.0%
O=C(CNC(=O)c1ccc(Br)cc1)N/N=C/c1ccc[nH]1,-1.0%,-8.8%,-1.1%,8.9,-3.7,-0.8,4.3%
COc1ccc2c(CC(=O)NCc3cccs3)coc2c1,·,-1.5%,12.7%[15.4 µM],0.9,8.1,7.0,-5.7%
COC(=O)c1ccc(CSc2nncn2N)cc1,·,1.6%,-19.3%[15.4 µM],3.0,3.9,3.6,-4.0%
CC(=O)Oc1ccc(CC(C(=O)O)N2C(=O)c3ccccc3C2=O)cc1 (stereo not given),·,5.7%,-61.4%[inhibitor][15.4 µM],14.7,5.6,-8.2,6.7%
CCOc1ccc(NC(=O)CN(C)C(=O)Cc2ccc3c(c2)OCCO3)cc1OCC,-2.9%,·,-76.6%[inhibitor],·,-4.0,·,·
c1ccc(-c2noc(CN3CCN(c4cnccn4)CC3)n2)cc1,·,0.7%,1.6%[15.4 µM],-0.7,-12.7,-2.1,-0.1%
CN(C)C(CNC(=O)c1cc(Br)ccc1Cl)c1ccco1 (stereo not given),·,18.3%,13.0%,-18.3,1.3,3.9,7.1%
O=C(COC(=O)/C=C/c1ccccc1)NC(=O)NC1CCCCC1,·,·,?,·,-7.7,·,2.6%
CCn1c(=NC(=O)c2ccc(S(=O)(=O)N3CCOCC3)cc2)sc2cccc(OC)c21,31.6µM*,-2.2%,-7.7%,6.3,21.2,8.9,0.9%
O=C1N=C(c2ccccc2)S/C1=C\c1cccs1,0.3%,35.5µM*,-12.8%,2.7,?,?,-3.6%
Cc1sc(NC(=O)c2cccc(N3C(=O)CCC3=O)c2)nc1-c1ccccc1,-2.8%,·,?,1.4,2.9,·,-12.2%
CCOc1ccccc1OCC(=O)Nc1cc(C)on1,-4.2%,·,16.6%,·,4.2,·,12.0%
Cc1cc(NC(=O)CSc2nncn2-c2ccccc2)no1,-1.7%,4.2%,-26.3%,2.2,·,1.6,10.0%
N#Cc1cccc(-n2nnnc2-c2ccc3c(c2)OCO3)c1,0.0%,23.6%,?,-7.6,-2.6,2.0,2.8%
COC(=O)C[C@H]1C[C@H]2c3cc(NS(=O)(=O)c4cccc(OC)c4)ccc3O[C@H]2[C@@H](CO)O1,1.0%,·,-44.0%[inhibitor],·,6.5,·,·
CC(=O)N1CCN(C(=O)c2ccc(NS(=O)(=O)c3cc(C)ccc3C)cc2)CC1,0.8%,·,-5.8%[15.4 µM],14.8,0.8,·,-2.2%
Cc1ccc(NC(=O)CCC(=O)N/N=C/c2cc([N+](=O)[O-])ccc2O)cc1,-1.0%,12.0%,-0.8%,1.1,-65.2*,3.8,-0.7%
Oc1ccccc1Cn1c(-c2ccccc2O)nc2ccccc21,?,-8.8%,?,-14.3,-1.1,3.4,-4.1%
CCC(=O)Nc1ccc(C(=O)COC(=O)CCN2C(=O)C3CC=CCC3C2=O)cc1 (stereo not given),·,·,4.0%[15.4 µM],0.6,2.5,·,-5.0%
Cc1c[n+]([O-])ccc1Oc1ccc([N+](=O)[O-])cc1,-1.0%,·,·,-2.5,1.1,·,-4.9%
c1ccc(Oc2cccc(CN3CCOCC3)c2)cc1,0.7%,-9.1%,6.5%,3.7,10.7,3.8,-1.7%
Cc1cccc(C)c1NC(=O)c1cccc(C(=O)Nc2c(C)cccc2C)n1,·,·,-22.8%,·,-2.1,·,-6.5%
COc1ccc(NC2=CC(c3ccccc3)N(c3ccc(OC)cc3)C2=O)cc1 (stereo not given),-0.3%,-6.3%&-8.1%,17.9%,1.6,·,0.4&5.0,-15.3%
COc1cnn(-c2cccc(C(F)(F)F)c2)c(=O)c1Cl,·,·,7.9%[15.4 µM],·,0.3,·,-0.3%
O=C1ON=C(c2ccccc2)/C1=C/c1ccccc1,1.0%,44.7µM*,?,-5.4,·,1.3,5.9%
COCCNC(=O)CN(c1ccc(C)cc1)S(=O)(=O)c1ccccc1,0.4%,9.1%,-1.1%,-7.7,3.2,0.6,3.4%
COc1cc2ccc(C(=O)O)cc2cc1OC,-22.2%,·,40.5%,·,-2.9,·,·
COC(=O)c1ccccc1NC(=O)NCc1cccnc1,28.2µM*,11.6%,?,-24.9,0.7,-2.5,1.2%
C=CC1=C2C=C(C3CC3)N(C3CC3)C=C2C(=O)C(C)(OC(=O)c2ccco2)C1=O (stereo not given),-4.7%,-18.7%,?,·,-5.4,-0.5[11.7 µM],-0.5%
O=C(Nc1nnc(C2CCCC2)s1)C1CCC1,-4.1%,18.5%,-13.4%,3.6,-3.9,-0.6,13.5%
CC/C(C)=N/Nc1ccc(S(=O)(=O)N2CCCC2)cc1[N+](=O)[O-],1.5%,-9.3%,-7.8%[15.4 µM],-12.0,?,2.0,-2.9%
Cc1c2cc(O)c(=O)cc-2oc2cc(O)c(O)cc12,?,39.8µM*,8.1%,-3.0&2.5,-93.8*,?,?
CC12CN(C(=O)c3ccc([N+](=O)[O-])cc3)CC(C)(CN(C(=O)c3ccc([N+](=O)[O-])cc3)C1)C2=O,-2.1%,12.1%,-9.5%,·,·,0.5,9.1%
CCOc1ccc(S(=O)(=O)N(CC(=O)NCC2CCCO2)c2ccc(F)cc2)cc1 (stereo not given),·,7.0%,23.9%,18.3,-12.9,5.2,5.9%
O=c1c2[nH]c3ccccc3c2ncn1Cc1ccncc1,?,-9.9%,19.7%,-2.5,-6.6,-0.7,14.9%
Cc1ccc(NC(=O)CSc2nnc(NC(=O)C3CC3)s2)cc1C,·,-1.3%,-2.0%[15.4 µM],-21.6,0.0,-10.5,-18.4%
CC(=O)Nc1ccc(S(=O)(=O)Nc2cccc(-c3cn4c(n3)SCC4)c2)cc1,-1.5%,0.9%,0.4%,?,-2.9,2.6,12.6%
CCOc1nc(NCCN2CCOCC2)nc(Nc2ccc([N+](=O)[O-])cc2)n1,·,8.8%,-17.0%,-7.6,-16.2,-8.2,-9.8%
Cc1ccc(NC(=S)N(CCN(C)C)Cc2cc3cccc(C)c3[nH]c2=O)cc1,-7.4%,-11.1%,-3.9%,3.6,2.5,2.4,12.1%
Cc1ccc(-c2c[nH]c(=S)n2-c2ccccc2)cc1,-5.4%,20µM*,-53.3%[inhibitor],18.8,-21.5,1.3,-5.7%
CC1CCCN(CCCNS(=O)(=O)c2ccc3c(c2)CCN3C(=O)C2CC2)C1 (stereo not given),0.1%,8.5%,-31.8%,-10.9,4.4,·,9.7%
CNC(=O)CCSc1ccc(C)cc1,0.7%,16.8%,23.6%,9.3,7.0,-2.0,15.0%
C#Cc1ccc([C@H]2C=C(C(=O)O)O[C@@H](OCCCCO)C2)cc1,4.9%,·,3.6%,·,·,·,13.9%
CCN1CCCC1CNC(=O)c1ccc(Sc2ccccc2Cl)c([N+](=O)[O-])c1 (stereo not given),·,-1.6%,9.3%[15.4 µM],4.9,10.3,-2.3,-41.3%
COc1ccccc1NC(=O)C1CCCN(S(=O)(=O)c2ccccc2)C1 (stereo not given),-0.9%,-2.7%,-48.3%[inhibitor],-0.8,1.8,8.8,-6.7%
Nc1nonc1C(=O)NCCN=Cc1cc(Cc2ccccc2)cc(Br)c1O,-1.3%,10.3%,0.0%,-9.7,-7.3,?,-15.9%
O=C1C2C(C(=O)N1CCN1CCN(Cc3ccc([N+](=O)[O-])cc3)CC1)[C@H]1C=C[C@@H]2C1 (stereo not given in full),-11.5%,-21.3%,-0.2%[15.4 µM],9.4,-19.9,2.5,4.4%
CSCCC(NC(=O)c1ccco1)C(=O)NC1CCCCCC1 (stereo not given),-0.9%,·,-8.1%,2.8,9.9,·,6.3%
O=C(CN1CCN(c2ncc(C(F)(F)F)cc2Cl)CC1)NC(=O)NCc1ccccc1,1.0%,1.4%,17.8%,1.4,10.3,0.8,-5.0%
CN(CC(=O)Nc1ccccc1Cl)C(=O)COC(=O)c1nc(Cl)ccc1Cl,3.5%,·,10.0%,9.0,-0.9,·,-4.1%
COc1ccccc1N1CC(C(=O)Nc2nnc(SCC(=O)N3CCCC3)s2)CC1=O (stereo not given),-2.3%,·,3.0%[15.4 µM],·,-9.4,·,5.9%
Cn1cc(Cl)c(C(=O)Nc2nccs2)n1,·,5.9%,-13.1%,-3.3,-10.3,·,-2.2%
CCCNC(=O)Cn1c(=O)oc2cc(S(=O)(=O)N3CCCC3)ccc21,2.0%,8.5%,-15.9%,21.5,3.7,3.3,9.1%
Cc1[nH]nc(-c2ccc(OCc3cnn(-c4ccccc4)c3)cc2O)c1Oc1ccccc1F,?,25.4%,-12.8%,8.9,-3.3,1.8,-0.3%
S=C(Nc1ccccc1)N1CCn2cccc2C1c1cccnc1 (stereo not given),0.6%,1.2%,6.5%,7.2,4.4,4.4,0.9%
O=C(CCc1c[nH]c2ccccc12)NCCc1ccc(O)cc1,-2.7%,4.2%,-9.9%,1.2,-3.8,-6.3,6.1%
Nn1c(SCC(=O)Nc2ccc3c(c2)CCC3)nnc1C1CC1,1.3%,·,-1.9%[15.4 µM],·,16.8,·,9.3%
O=S(=O)(NCCC1=CCCCC1)c1ccc(Br)cc1,-0.7%,5.0%,-21.4%,-7.9,0.7,·,-2.6%
